# Screening data from PubChem.
# GCN5L2 inh – inhibitors of human GCN5L2 histone acetyltransferase | Q92830 | 390,000 tested, 0.21% active | Potency, µM (highest dose often 58.9 µM), inactives show top-dose activity change, negative = inhibition, hits mostly inhibitors | GCN5L2 HAT assay, ThioGlo1 CoA-SH fluorescence
# Target sequence (Q92830 whole entry, looked up): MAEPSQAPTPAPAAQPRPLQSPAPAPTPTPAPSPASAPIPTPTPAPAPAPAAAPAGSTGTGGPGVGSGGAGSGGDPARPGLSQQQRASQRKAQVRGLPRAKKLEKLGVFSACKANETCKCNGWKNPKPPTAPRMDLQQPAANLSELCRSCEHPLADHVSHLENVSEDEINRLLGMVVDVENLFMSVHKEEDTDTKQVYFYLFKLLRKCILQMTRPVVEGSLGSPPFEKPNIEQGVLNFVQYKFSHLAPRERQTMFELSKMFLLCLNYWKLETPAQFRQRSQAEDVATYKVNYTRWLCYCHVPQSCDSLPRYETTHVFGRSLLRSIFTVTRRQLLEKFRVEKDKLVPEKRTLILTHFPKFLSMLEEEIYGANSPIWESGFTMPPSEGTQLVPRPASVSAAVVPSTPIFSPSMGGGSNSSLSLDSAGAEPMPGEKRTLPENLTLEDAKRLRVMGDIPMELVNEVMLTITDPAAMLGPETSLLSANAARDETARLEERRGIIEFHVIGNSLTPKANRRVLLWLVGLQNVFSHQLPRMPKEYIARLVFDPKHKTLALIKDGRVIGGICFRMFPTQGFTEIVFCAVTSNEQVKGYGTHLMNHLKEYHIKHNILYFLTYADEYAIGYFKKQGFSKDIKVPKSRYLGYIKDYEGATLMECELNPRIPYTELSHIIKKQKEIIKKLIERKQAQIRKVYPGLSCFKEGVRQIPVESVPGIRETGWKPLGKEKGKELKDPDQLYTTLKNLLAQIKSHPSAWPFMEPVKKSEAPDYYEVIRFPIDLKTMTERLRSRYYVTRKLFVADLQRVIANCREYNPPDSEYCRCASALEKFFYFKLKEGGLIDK
#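 Enzyme at 20nM final was mixed with library compounds for 15 min at room temperature. Peptide H3(1-25) at 75uM, acetyl-CoA at 70uM and ThioGlo1 at 50uM were then added. Plates were read immediately and after 20 min (Ex340nm/Em540nm).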
# N370S GC – inhibits or activates N370S mutant glucocerebrosidase | P04062 | N370S GC spleen homogenate, 4MU-glucoside fluorescence | Potency, µM (highest dose often 59.4 µM), without a hit: at the highest dose activity change, negative = inhibition, usual class: inhibitors | 330,000 tested, 0.092% active | AID 2101;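 also: 0% = full enzyme activity and -100% = no enzyme basal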
# * = called active by the depositor; ? = inconclusive; . = no result given; & = joins results of further samples; [ ] = remark or other dose. Calls follow the shape of the dose curve; as a rule, active = well fitted curve in the direction sought with a large enough effect; inconclusive = small, poorly fitted or top-dose-only effect, or another doubt; inactive = no such curve, though single readings can be large; an effect the other way counts as inactive or inconclusive. Unless noted, % is scaled to controls: 0 for no effect and ±100 for the full control effect; potency is read from the fitted curve at half-maximal effect.
SMILES,GCN5L2 inh,N370S GC
CCNC(=O)C1CCCN(c2ncnc3onc(C)c23)C1 (stereo not drawn),25%,.
CCCCP(=O)(CCCC)Cc1ccccc1O,2%,-15%
O=C(CNCc1ccccc1)Nc1cccc(Cl)c1Cl,0%,-17%
CC1(C(=O)O)CCC(C(=O)NC2CCCCC2)C1(C)C (stereo not drawn),-5%,.
Nn1cnnc1SCC(=O)N(C1CCCCC1)C1CCCCC1,-1%,-7%
CCOc1ccccc1NC(=O)C1CCN(S(C)(=O)=O)CC1,-1%,-10%
Cc1cccc(C(=O)OC(C)CN2CCN(C)CC2)c1 (stereo not drawn),3%,-4%
CCCNC(=O)C(Cc1ccccc1F)NC(=O)c1ccc(C#N)cc1 (stereo not drawn),-2%,.
Cc1nn(C)c(C)c1/C=N/NC(=O)CCn1nc(C)c([N+](=O)[O-])c1C,-4%,22%
COc1ccccc1CNC(=O)CSc1cc(C)[nH]c(=O)n1,3%,.
CCOCCCNC(=O)c1ccc2c(c1)N(Cc1ccccc1)C(=O)CS2=O (stereo not drawn),-3%,1%
CN(CCCC(=O)NCc1ccc2c(c1)OCO2)S(=O)(=O)c1ccc([N+](=O)[O-])cc1,-3%,-9%
COc1cc(C(=O)Nc2ccc(C)cc2)c2ccccc2n1,24%,-2%
O=[N+]([O-])c1ccc(CN2CCN(c3ccc([N+](=O)[O-])cc3)CC2)cc1,-7%,-6%
CN1C(=O)N(CC(=O)Nc2ccc(C(F)(F)F)cc2)C(=O)C12CCCCC2,-4%,-6%
CCN(CC)CC(=O)Nc1ccc([N+](=O)[O-])cc1,-8%,-2%
NC(=Nc1ccc(Cl)cc1)c1ccccc1,-11%,3%
O=S(=O)(C(=CNc1ccccc1)S(=O)(=O)c1ccccc1)c1ccccc1,21%,9%
Cc1ccc(C2=Nc3cccnc3C(c3ccccc3)=NN2)cc1,-2%,16%
CCC(Sc1ncccc1C(=O)OCCN1CCCC1=O)C(=O)NCc1ccco1 (stereo not drawn),-28%,-21%
COCCN(C(=O)C1CC(=O)N(Cc2ccc(C)cc2)C1)c1c(N)n(CC(C)C)c(=O)[nH]c1=O (stereo not drawn),-8%,.
C#CCN(CC=C)C(=O)c1cccc(OC2CCN(S(C)(=O)=O)CC2)c1,-2%,-16%
COc1ccc(-n2c(SCC(N)=O)nnc2-c2ccc(NS(=O)(=O)c3ccc(C)cc3)cc2)cc1,-6%[0.501 µM],-4%
O=C(NNC(=O)c1ccccc1)C(=O)N1CCCCC1,-3%,5%
CCOc1ccc2oc(C(=O)OCC(=O)NC3CCCCC3)c(C)c2c1,6%,.
N=c1c2c(n(Cc3ccccc3)c3c1CCC3)CCC2,0%,-21%[2.35 µM]
CCOC(=O)N1CCN(CC(=O)c2ccc(O)cc2O)CC1,-7%,-8%
CCCc1nnc(NC(=O)CCC(=O)NC2CCCCCC2)s1,-19%,3%
O=C(O)C1CCCN(S(=O)(=O)Cc2ccccc2)C1 (stereo not drawn),-4%,-8%
Cn1c(=O)oc2cc(S(=O)(=O)NC3CCCCC3)ccc21,-3%,-5%

# Nothing new here: an excerpt of the list.
SMILES,GCN5L2 inh,N370S GC
CCNC(=O)C1CCCN(c2ncnc3onc(C)c23)C1 (stereo not drawn),25%,.
CCCCP(=O)(CCCC)Cc1ccccc1O,2%,-15%

# (cont.)
SMILES,GCN5L2 inh,N370S GC
CCOc1ccc(N(CC(=O)Nc2cccc(C)c2)S(C)(=O)=O)cc1,-13%,-2%
CC(=O)Nc1cccc(NS(=O)(=O)Cc2ccc(Cl)cc2)c1,2%,3%
CCC(Sc1nc2c(cnn2-c2ccccc2)c(=O)[nH]1)C(=O)OC (stereo not drawn),-9%,8%
O=C(Cn1ccc(C(F)(F)F)n1)N/N=C/c1ccc2c(c1)OCO2,-3%,-2%
Cn1nc(-c2ccc(S(N)(=O)=O)s2)cc1C(F)(F)F,-6%,3%
CC(=O)N1CCN(S(=O)(=O)c2c(C)n(C)c(=O)n(C)c2=O)CC1,-5%,-4%
CC(CCN1CCN=C1Nc1ccccc1)c1ccccc1 (stereo not drawn),0%,-4%
COCC(=O)N/N=C(\C)CC(=O)Nc1ccccc1C(N)=O,-2%,13%
CC(=O)c1nnn(-c2ccc([N+](=O)[O-])cc2C)c1C,-7%,0%
CSc1ncc(C(=O)Nc2cccnc2)c(C(F)(F)F)n1,0%,-1%
COc1ccc(CCNc2ccc(C)cc2)cc1,3%,2%
Cc1ccc(/C=C/c2onc(C)c2S(=O)(=O)N2CCC(C(=O)N3CCCCC3)CC2)cc1,-12%,1%
Cc1ccsc1/C=C1/SC(N2CC(C)OC(C)C2)=NC1=O (stereo not drawn),-6%,0%
COc1ccc(CNC(=O)C2=Cc3cccc(OC)c3OC2)cc1OC,-6%,.
Cc1cn2c(=O)cc(COc3ccc(C(C)(C)C)cc3)nc2s1,-3%,.
COc1cc2c(cc1OC)C(c1ccccc1O)N(C1CC(=O)N(c3ccccc3)C1=O)CC2 (stereo not drawn),-6%,-2%
Oc1ccccc1N=Cc1c(O)ccc2oc3c(c12)CCCC3,-2%,7%
Cc1noc(NS(=O)(=O)c2ccc(NC(=O)C34CCC(CC3)C4)cc2)c1C,-1%,-3%
O=C(CSc1n[nH]c(=O)n1Cc1ccccc1)Nc1ccc(F)c(F)c1F,8%,25%
CCOc1ccccc1CN1C(=O)NC(C)(c2ccccc2)C1=O (stereo not drawn),0%,-4%
CC1CC(C)CN(c2ccc([N+](=O)[O-])nc2)C1 (stereo not drawn),-6%,0%
COC(=O)c1ccccc1NC(=O)Cn1c(=O)cc(C)c2c(C)nn(-c3cccc(Cl)c3C)c21,-13%,.
COC(C(=O)Nc1ccc(S(=O)(=O)Nc2cccc3ccccc23)cc1)c1ccccc1 (stereo not drawn),-6%,9%
CC(=O)Oc1c(C)c(OC(C)=O)c2c(c1C(C)=O)OC1CC(=O)C(C(C)=O)=C(O)C21C (stereo not drawn),23%,-6%
COc1ccc(OC)c(C2=NOC(C(=O)Nc3ccccc3SC)C2)c1 (stereo not drawn),-13%,-17%
O=C(Oc1ccc(N(Cc2cccs2)C2=NS(=O)(=O)c3ccccc32)cc1)c1ccco1,-15%,-2%
Oc1cc(OCc2ccccc2)ccc1-c1[nH]ncc1-c1ccccc1,-9%,-13%
C=CCNC(=S)NS(=O)(=O)c1cccs1,0%,-1%
COCc1cc(=O)[nH]c(-c2ccccc2)n1,-11%,5%
Fc1ccccc1-n1cn[nH]c1=S,1%,-9%
N#Cc1nc(COc2ccc(-c3ccccc3)cc2)oc1NCc1cccnc1,.,8%
CCc1ccc(C(=O)C(C)OC(=O)C2COc3ccccc3O2)cc1 (stereo not drawn),-1%,1%
CN(C)CCn1c(=O)n(-c2cccc(Cl)c2)c(=O)c2c3c(sc21)CCCCC3,0%,-10%
COc1ccc(C)cc1S(=O)(=O)N(C)CC(=O)NC1CCCC1,3%,3%
COc1cccc(C=Nc2ccc3c(c2)OCCO3)c1O,-20%,-1%
CCC(=O)/C=C1\Sc2ccc(OC)cc2N1CCO,-10%,-14%
CC1(C)C(=O)OC(c2cccn2-c2ccc([N+](=O)[O-])cc2)C(C)(C)C1=O (stereo not drawn),-1%,-25%
CCN(c1cccc(C)c1)S(=O)(=O)c1c(C)[nH]c(C)c1C(=O)N1CCCCC1,-6%,-5%
CC(C)Oc1ccc(CNCC2(O)CCOC(C)(C)C2)cc1 (stereo not drawn),2%,2%
CN(C)CCN(Cc1ccccc1)S(=O)(=O)c1csc(C(N)=O)c1,-2%&-5%,-1%
O=C(Nc1cccc(F)c1)c1ccc(S(=O)(=O)NCC2CCCO2)cc1 (stereo not drawn),0%,-8%
COC(=O)c1ccc(OC)c(Cn2c(=O)n(C)c(=O)c3sccc32)c1,?,5%
CC(=O)c1ccc(S(=O)(=O)Nc2ccc(-c3ccc(N4CCCCCC4)nn3)cc2)cc1,-5%,.
CN(Cc1ccc(Br)s1)C(=O)CNC(=O)c1ccc2c(c1)OCO2,-3%,.
CCOc1ccc(-c2c(C(=O)N/N=C/c3ccc(OC(C)C)cc3)nnn2-c2nonc2N)cc1,?,22%
COc1ccc(/C=C/C(=O)c2ccoc2)cc1,-20%,-7%
Cc1cc(C)cc(Nc2ccc(C(=O)O)cc2N)c1,?,-14%
COc1cccc(N(CC(=O)NCCSc2ccccn2)S(C)(=O)=O)c1,-2%,0%
O=C(NC1CC(=O)N(c2cccc(F)c2)C1)c1ccc(S(=O)(=O)N2CCCCC2)cc1 (stereo not drawn),1%,.
Cc1ccc(S(=O)(=O)N2CCN(C)CC2)cc1[N+](=O)[O-],2%,5%

# Next part
SMILES,GCN5L2 inh,N370S GC
Cn1c(SCc2nnc(-c3ccccc3)o2)nc2ccccc21,-5%,?
C/C(=N/N1CCN(Cc2cccc3ccccc23)CC1)c1cccnc1,-2%,-15%
COc1ccc(Cl)cc1C(=O)Nc1ccc(OCC(=O)N2CCOCC2)cc1,-29%,-2%
N#CCCN(Cc1cccnc1)S(=O)(=O)c1ccc(S(=O)(=O)N2CCCCCC2)cc1,-7%,-4%
CCc1cccc(NC(=O)CCNS(=O)(=O)c2cccc3nonc23)c1,-8%&-13%,-12%
COc1cccc(N2CCN(S(=O)(=O)c3ccc(-n4cnnn4)cc3)CC2)c1,-6%&-3%,-4%
COc1ccc2c(c1)c(=O)c(C(=O)c1ccccc1)cn2Cc1ccccc1,-5%,18%
COc1ccccc1CNc1ccc2c(c1)CCC2,-6%,-2%
CCOc1ccc(NS(=O)(=O)c2ccc(-c3ccc(=O)[nH]n3)o2)cc1,-1%,-12%
C[C@@H]1C(=O)O[C@H]2[C@H]1CC[C@@]1(C)C(=O)C=C[C@@](C)(O)[C@H]21,25%,-18%
COc1cc2cc(CN(Cc3cccnc3)C(=O)Nc3ccccc3F)c(=O)[nH]c2cc1OC,-1%,1%
COc1ccc(Nc2nc3ccccc3n3cnnc23)cc1Cl,-5%,-5%

# Of the compounds above, 18 have a halogen.
SMILES,GCN5L2 inh,N370S GC
O=C(CNCc1ccccc1)Nc1cccc(Cl)c1Cl,0%,-17%
CCCNC(=O)C(Cc1ccccc1F)NC(=O)c1ccc(C#N)cc1 (stereo not drawn),-2%,.
CN1C(=O)N(CC(=O)Nc2ccc(C(F)(F)F)cc2)C(=O)C12CCCCC2,-4%,-6%
NC(=Nc1ccc(Cl)cc1)c1ccccc1,-11%,3%
CC(=O)Nc1cccc(NS(=O)(=O)Cc2ccc(Cl)cc2)c1,2%,3%
O=C(Cn1ccc(C(F)(F)F)n1)N/N=C/c1ccc2c(c1)OCO2,-3%,-2%
Cn1nc(-c2ccc(S(N)(=O)=O)s2)cc1C(F)(F)F,-6%,3%
CSc1ncc(C(=O)Nc2cccnc2)c(C(F)(F)F)n1,0%,-1%
O=C(CSc1n[nH]c(=O)n1Cc1ccccc1)Nc1ccc(F)c(F)c1F,8%,25%
COC(=O)c1ccccc1NC(=O)Cn1c(=O)cc(C)c2c(C)nn(-c3cccc(Cl)c3C)c21,-13%,.
Fc1ccccc1-n1cn[nH]c1=S,1%,-9%
CN(C)CCn1c(=O)n(-c2cccc(Cl)c2)c(=O)c2c3c(sc21)CCCCC3,0%,-10%
O=C(Nc1cccc(F)c1)c1ccc(S(=O)(=O)NCC2CCCO2)cc1 (stereo not drawn),0%,-8%
CN(Cc1ccc(Br)s1)C(=O)CNC(=O)c1ccc2c(c1)OCO2,-3%,.
O=C(NC1CC(=O)N(c2cccc(F)c2)C1)c1ccc(S(=O)(=O)N2CCCCC2)cc1 (stereo not drawn),1%,.
COc1ccc(Cl)cc1C(=O)Nc1ccc(OCC(=O)N2CCOCC2)cc1,-29%,-2%
COc1cc2cc(CN(Cc3cccnc3)C(=O)Nc3ccccc3F)c(=O)[nH]c2cc1OC,-1%,1%
COc1ccc(Nc2nc3ccccc3n3cnnc23)cc1Cl,-5%,-5%

# A portion of the library; most or all hits stand in other tables.
